Platelet DG rel: platelet dense granule release activity. human platelet-rich plasma, SFLLRN dense granule ATP release, luminescence. hit rate 0.22% among 300,000. inhibition, %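 (compounds screened at 7.5 µM in platelet-rich plasma)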;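 active means mean replicate score, as percent of positive control, at or above 50; inconclusive means mean below 50 but at least one replicate at or above 50; inactive means mean and every replicate below 50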
RGS4 block: inhibitors of human RGS4; B-score at 10 µM; hit rate 0.45% among 310,000; P49798; HEK293 M3R/RGS4 inducible, Fluo-4 calcium flux; hits give high values; triggered by carbachol at its EC20;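 active means B-score, a plate-corrected calcium signal, over three deviations above library mean, with baseline fluorescence within five deviations of library mean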;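 further: RGS4 expression induced by doxycycline in cells with stable M3 receptor; B-score is computed from the integrated fluorescence ratio over baseline after carbachol; higher B-score means a larger calcium signal and so more RGS4 inhibition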
MrgX1 antag: antagonists of human MrgX1 receptor | AID 588676 | hit rate 1.3% among 310,000 | MRGX1-HEK293 calcium flux, Fluo-4, BAM8-22 antagonism; hits give low values | B-score at 10 µM;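 active means calcium-response B-score plate-corrected more than 3 library SD below zero, starting fluorescence within 5 deviations, no agonist response on first addition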;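 further: peak minus trough fluorescence over baseline after final BAM8-22 challenge near maximal dose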
TRPC4 block: inhibitors of mouse TRPC4 channel | HEK293 TRPC4beta/mu-opioid, DAMGO-evoked Fluo4 calcium flux; hits give low values | B-score at 10 µM | hit rate 0.39% among 300,000 | AID 2247;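 active means B-score over 3 SD under the library average, no early fluorescence shift, positive overall ratio signal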
Target sequence (Q9QUQ5 whole entry, looked up): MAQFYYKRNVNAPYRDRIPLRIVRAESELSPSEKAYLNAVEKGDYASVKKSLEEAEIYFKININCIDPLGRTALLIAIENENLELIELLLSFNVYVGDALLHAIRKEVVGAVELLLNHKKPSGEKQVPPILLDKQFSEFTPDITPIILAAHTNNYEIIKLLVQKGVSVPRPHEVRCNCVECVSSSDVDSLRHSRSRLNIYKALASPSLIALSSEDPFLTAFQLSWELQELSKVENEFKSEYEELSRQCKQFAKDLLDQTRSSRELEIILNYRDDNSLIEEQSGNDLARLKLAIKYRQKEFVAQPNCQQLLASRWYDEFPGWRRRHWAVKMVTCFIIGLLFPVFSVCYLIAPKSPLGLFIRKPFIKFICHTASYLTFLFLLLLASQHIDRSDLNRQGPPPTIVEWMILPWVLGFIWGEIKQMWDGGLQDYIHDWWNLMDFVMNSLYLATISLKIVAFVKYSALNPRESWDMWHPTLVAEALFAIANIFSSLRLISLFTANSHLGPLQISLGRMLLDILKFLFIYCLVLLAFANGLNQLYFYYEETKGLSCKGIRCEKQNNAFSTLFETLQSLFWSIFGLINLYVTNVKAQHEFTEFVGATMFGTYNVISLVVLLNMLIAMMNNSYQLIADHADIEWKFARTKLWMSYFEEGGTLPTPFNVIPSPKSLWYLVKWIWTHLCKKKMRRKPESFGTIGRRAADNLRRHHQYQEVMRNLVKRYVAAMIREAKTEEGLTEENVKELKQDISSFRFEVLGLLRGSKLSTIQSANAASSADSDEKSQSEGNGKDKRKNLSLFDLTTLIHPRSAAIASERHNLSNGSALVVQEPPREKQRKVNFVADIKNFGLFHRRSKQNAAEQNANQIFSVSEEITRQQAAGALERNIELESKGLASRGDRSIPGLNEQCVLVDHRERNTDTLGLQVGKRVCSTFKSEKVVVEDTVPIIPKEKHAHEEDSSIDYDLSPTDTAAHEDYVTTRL
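System: stable TRPC4beta/mu-opioid receptor HEK293 cells; Dosing: single-point compound dosing; Measured by: Fluo4 Ca2+ flux fluorescence; Read-out basis: per-well B score of integrated baseline-normalized Fluo4 ratio.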
TRPC6 inh: inhibitors of mouse TRPC6 channel | Q61143 | HEK293-TRPC6, membrane potential dye, ACh-evoked depolarization; hits give low values | B-score at 10 µM | hit rate 1.1% among 310,000 | AID 2553;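 active means B-score under library mean minus 3 SD, initial fluorescence not abnormally high, positive integrated signal ratio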;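 further: B-score derived from integrated fluorescence ratio over the kinetic read; more negative B-score means stronger inhibition of depolarization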
SKKanGAS inh: SKKanGAS growth inhibition; S. pyogenes SKKanGAS, kanamycin growth, BacTiter-Glo, 6 h; inhibition, % at 7.5 µM; hit rate 1.3% among 300,000; AID 1662;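 active means mean replicate score, as percent of positive control median, at least 50; inconclusive means mean below 50 but one replicate at or above 50; inactive means mean and every replicate below 50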;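 further: strain carries kanamycin resistance gene driven by streptokinase promoter and grows in 40 µg/ml kanamycin; loss of luminescence reflects streptokinase promoter inhibition or plain growth inhibition; 0% = median of DMSO wells and 100% = positive control at its reference dose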
MrgX1 allo act: human MrgX1 positive allosteric modulation, primary screen. Q96LB2. MrgX1-HEK293, Fluo-4 calcium flux, FDSS; hits give high values. B-score at 10 µM. hit rate 0.63% among 310,000;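 active means plate-corrected calcium response at least 3 library SD above typical, normal starting fluorescence, not activating the receptor alone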;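 further: compound read alongside a low EC10 to EC30 dose of BAM8-22 agonist; peak minus trough fluorescence over baseline measured at the second addition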
RGS4 act: RGS4 potentiation or activation; HEK293 M3R/inducible RGS4, carbachol calcium flux Fluo4; hits give low values; B-score at 10 µM; hit rate 0.92% among 310,000; AID 463111;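 active means B-score of the integrated calcium signal more than 4 SD below the library mean, with starting fluorescence not abnormally high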;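 further: negative B-score means reduced calcium response which marks RGS4 activation or potentiation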
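System – HEK293 FlpIn-TREx cells, stable M3R, doxycycline-inducible RGS4 · Reagent – ECmax carbachol challenge · Times – compound preincubation 20 min at room temperature before agonist · Technique – Fluo4 fluorescence kinetic imaging of calcium · Measure – B score of integrated Fluo4 ratio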
MrgX1 ag: agonists of human MrgX1 receptor. Q96LB2. B-score at 10 µM. hit rate 0.44% among 310,000. MrgX1-HEK293 cells, Fluo-4 calcium fluorescence, agonist mode; hits give high values;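 active means calcium response B-score plate-corrected fluorescence ratio at least 3 library SD, with starting fluorescence B-score inside 5 SD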
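Assay system: stable human MrgX1 HEK293 cell line. Quantity: 15,000 cells per well. Schedule: cells plated overnight, dye loaded 0.5 h 37 °C, 0.5 h room temperature. Detection: Fluo-4 NW calcium-flux fluorescence, kinetic read. Read-out basis: peak-minus-minimum fluorescence over baseline, converted to B scores. Control set: positive and negative control wells on each plate.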
TRPC6 activator: mouse TRPC6 channel activation; Q61143; HEK293-TRPC6 membrane potential dye fluorescence; hits give high values; B-score at 10 µM; hit rate 0.13% among 310,000; AID 2550;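 active means B-score of the integrated fluorescence ratio above library mean plus 3 SD, and starting fluorescence ratio within library mean plus 5 SD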;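 further: higher score means more depolarization so channel activation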
An asterisk follows results filed as active; i = inactive; u = inconclusive; x = no result given; & = joins results of further samples.

Each structure is followed by: Platelet DG rel	RGS4 block	MrgX1 antag	TRPC4 block	TRPC6 inh	SKKanGAS inh	MrgX1 allo act	RGS4 act	MrgX1 ag	TRPC6 activator
#1 CC12CN3CC(C)(CN(C1)C3c1ccc(Cl)cc1Cl)C2O (stereo not drawn)
    -0.8	i	i	-6*	i	-4.4	i	i	i	i
#2 COc1cc(C)nc(Oc2ccc(OCCOc3ccc(C)cc3)nn2)n1
    -11.0	i	i	i	i	-17.5	i	i	i	i
#3 CCSc1nc2sc3c(c2c2nnc(SCC(=O)NCc4ccco4)n12)CCCC3
    -2.4	i	i	i	i	14.6	i	i	i	i
#4 CC(=O)OC[C@H]1O[C@H](C/C=N/O[C@@H](C)c2cn([C@H](CO)Cc3ccccc3)nn2)C=C[C@@H]1OC(C)=O
    -1.1	i	i	i	i	9.4	i	i	i	i
#5 CCc1nc(N)nc(N)c1-c1ccc(Cl)cc1
    -6.1	i	i	i	i	69.9*	i	i	28.4*	i
#6 COc1cccc(-c2nnc3sc(-c4ccco4)nn23)c1
    0.1	i	i	i	i	-1.6	i	i	i	i
#7 OCCOCCNc1ncnc2c1cnn2-c1ccc(Cl)cc1
    -0.1	i	i	i	i	-11.7	i	i	i	i
#8 CCOC(=O)N1CCN(/C=C(\C#N)c2nc3ccccc3s2)CC1
    9.5	i	-7.13*	i	i	3.1	i	i	i	i
#9 O=[N+]([O-])c1cccc2cn[nH]c12
    0.0	i	i	i	i	-4.8	i	i	i	i
#10 O=c1[nH]c2cnccc2n1-c1ccccc1
    -8.5	i	i	i	i	-0.8	i	i	i	i
#11 CO[C@@]1(NC(=O)Cc2cccs2)C(=O)N2C(C(=O)O)=C(COC(N)=O)CS[C@@H]21
    3.6	i	i	i	i	u	i	i	i	i
#12 COC(=O)c1ccc(CSc2ncnc3c2sc2nc(N4CCOCC4)c4c(c23)CCCC4)o1
    -4.8	i	i	i	i	47.7	i	i	i	i
#13 CCn1cc(C(=O)O)c(=O)c2cc(F)c(N3CCNCC3)cc21
    -0.4	i	i	i	i	3.9	i	i	i	i
#14 CCC(NC(=O)Nc1ncccc1C)(C(F)(F)F)C(F)(F)F
    -2.2	i	i	i	i	6.6	i	i	i	i
#15 COc1cccc(-c2nnc3sc(C4CCCCC4)nn23)c1
    4.6	i	i	i	i	7.5	i	i	i	i
#16 CCOC(=O)c1ccc2nc(NC(NC(C)=O)(C(=O)OC)C(F)(F)F)sc2c1 (stereo not drawn)
    -5.0	i	i	i	i	-6.0	i	i	i	i
#17 COc1ccc(-c2ncncc2-c2csc(C)n2)c(O)c1
    -1.6	i	i	i	i	-0.5	i	i	i	i
#18 Cc1ccc2cc(CN(C(=O)c3ccco3)c3ccccc3C)c(=O)[nH]c2c1
    -2.6	i	i	i	i	-0.8	i	i	i	i
#19 Cc1cc(C)nc(N(C#N)CC(=O)N(c2ccccc2)C(C)C)n1
    4.0	i	i	i	i	3.0	i	i	i	i
#20 COc1ccc(N2C(=O)CN=C2Nc2nc(C)cc(C)n2)cc1
    -1.4	i	i	i	i	-24.9	i	i	i	i
#21 COC(=O)c1c(-n2cnnn2)sc(C)c1C
    3.7	i	i	i	i	7.2	i	i	i	i
#22 NC(N)=NC(=O)c1nc(Cl)c(N)nc1N
    0.2&-4.6&0.3	i	i	i	i	-6.0&-5.1&0.3	i	i	i	i
#23 CC1=C(C(=O)Nc2ccccc2)C(c2ccncc2)C(C#N)=C(SCC(=O)NC(C)C)N1 (stereo not drawn)
    5.2	i	i	i	i	-4.0	i	i	i	i
#24 Oc1c(Cl)cc(Cl)cc1CNc1ccc(Br)cn1
    4.0	i	i	i	i	19.6	i	i	i	i
#25 OCc1cc(C(O)CNCCCCCCOCCCCc2ccccc2)ccc1O (stereo not drawn)
    1.4&-7.1	i	i	i	i	2.5&0.2	i	i	i	i
#26 CC(=O)NNC(=O)N1Cc2ccccc2Oc2ccc(Cl)cc21
    0.1	i	i	i	i	-7.2	i	i	i	i
#27 CCCNC(=O)OC[C@H]1O[C@H](CCO/N=C/[C@@H](NS(=O)(=O)c2ccc(C)cc2)[C@H](C)/C=C/CC(=O)OC)C=C[C@@H]1Oc1ccc(OC)cc1
    -6.4	i	x	i	i	19.3	x	i	x	i
#28 COc1ccc[nH]c1=O
    0.3	i	i	i	-5.99*	3.9	i	i	i	i
#29 Cn1c(Cn2cnc(Cl)c2Cl)nc2ccccc21
    5.2	i	i	i	i	7.7	i	i	i	i
#30 Cc1c(C=NCCOCc2ccccc2)cnn1C
    -0.8	i	i	i	i	1.1	i	i	i	i
#31 CN(C)S(=O)(=O)Nc1ccccn1
    -0.9	i	i	i	i	-2.9	i	i	i	i
#32 FC(F)(F)c1cccc(-c2nc3nc(Cl)c(Cl)nc3[nH]2)c1
    6.2	i	i	i	i	u	i	i	i	i
#33 CCSc1nnc(NC(=O)C(CC)(C(F)(F)F)C(F)(F)F)s1
    -12.6	i	i	i	i	3.1	i	i	i	i
#34 O=C(O)CCNC(=O)c1ccccc1
    -4.3	i	i	i	i	14.0	i	i	i	i
#35 COc1ccc(/C=N/n2cncn2)cc1CSc1ccccn1
    1.4	i	i	i	i	-5.6	i	i	i	i
#36 N#Cc1c(SCC(N)=O)nsc1SCc1ccc(Cl)cc1
    0.0	i	i	i	i	15.0	i	i	i	i
#37 COc1cccc(C2C(C(=O)c3cc4ccccc4o3)=C(O)C(=O)N2CCN(C)C)c1OC (stereo not drawn)
    -2.2	i	i	i	i	1.8	i	i	i	i
#38 CCn1c(SCC(=O)O)nc2sc3c(c2c1=O)CCC3
    -6.3	i	i	i	i	4.4	i	i	i	i
#39 COc1ccc(OC)c(C2C(C(=O)c3sc(C)nc3C)=C(O)C(=O)N2CCN2CCOCC2)c1 (stereo not drawn)
    7.1	x	i	x	x	-2.9	i	x	i	x
#40 CN(C)/C=C1\N=C(c2cccs2)OC1=O
    2.1	i	i	i	i	-18.8	i	i	i	i
#41 CC1(C)CC(=O)C(CCCN2C(=O)c3ccccc3C2=O)C(=O)C1
    1.8	i	i	i	i	3.4	i	i	i	i
#42 CCOCCN(C(=O)COC)c1cccc(OC)c1
    2.1	i	i	i	i	2.1	i	i	i	i
#43 CC1CCCCN1C(=O)C12CCC(C)(/C(=N/O)C1)C2(C)C (stereo not drawn)
    4.4	i	i	i	i	2.1	i	i	i	i
#44 CCOC(=O)CC1=C(C(=O)OCC)C(c2cc(OC)c(OC)cc2OC)C(C#N)=C(N)O1 (stereo not drawn)
    4.8	i	i	i	i	6.1	i	i	i	i
#45 CC(=O)c1cc2c(=O)c3ccccc3oc2nc1C
    22.6	i	i	i	i	-5.3	i	i	i	i
#46 Cc1cc2cc3c(=O)[nH]c(=O)[nH]c3nc2cc1C
    -1.0	i	i	i	i	-1.0	i	i	i	i
#47 CCOc1ccc(C2/C(=C(/O)c3ccc(OC)cc3)C(=O)C(=O)N2c2cc(C)on2)cc1OC (stereo not drawn)
    2.2	i	i	i	i	1.9	i	i	i	i
#48 O=C(C1=C(O)C(=O)N(c2ncccn2)C1c1cccc(Cl)c1)c1ccco1 (stereo not drawn)
    10.8	i	i	i	i	0.1	i	i	i	i
#49 COc1cccc(C(=O)OCCN(C)C(C)(C)C)c1
    -0.1	i	i	i	i	-0.7	i	i	i	i
#50 Cn1c(NCC(O)c2ccccc2)nc2c1c(=O)n(Cc1ccc(Cl)cc1)c(=O)n2C (stereo not drawn)
    -2.2	i	i	i	i	10.6	i	i	i	i

Additional compounds.
Each structure is followed by: Platelet DG rel	RGS4 block	MrgX1 antag	TRPC4 block	TRPC6 inh	SKKanGAS inh	MrgX1 allo act	RGS4 act	MrgX1 ag	TRPC6 activator
#51 NC(=O)c1ncn([C@@H]2O[C@H](CO)[C@@H](O)[C@H]2O)c1O
    -3.5	i	-9.03*	i	i	-0.6	i	i	i	i
#52 Cc1ccc(N2C(=O)CC(Cn3nc(C)cc3C)C2=O)cc1 (stereo not drawn)
    3.4	i	i	i	i	1.8	i	i	i	i
#53 CC(C)N1CC=C2C(C#N)=C(N)C(C#N)(C#N)C(c3ccccc3)C2C1 (stereo not drawn)
    -4.0	i	i	i	i	8.8	i	i	i	i
#54 CN(C)CCN(Cc1ccccc1)c1ccccn1
    1.3	i	i	i	i	0.5	i	i	i	i
#55 CCOC(=O)c1ccc(N2C(=O)CC(Sc3nnc(C)s3)C2=O)cc1 (stereo not drawn)
    0.9	i	i	i	i	0.8	i	i	i	i
#56 Cc1cc(C)n2c3c(c(C#N)c2n1)CC(C)(C)OC3
    10.5	i	i	i	i	-5.5	i	i	i	i
#57 COC(=O)/C=c1/s/c(=C(/C#N)C(=O)N2CCCCC2)n(-c2ccccc2)c1=O
    -1.5	i	i	i	i	10.4	i	i	i	i
#58 Cn1cnc2c1c(=O)[nH]c(=O)n2C
    -4.5	i	i	i	i	-2.4	i	i	i	i
#59 COC(=O)C/C=C/[C@@H](C)[C@@H](/C=N/OC[C@@H](C)[C@H](OCc1ccccc1)C(C)C)NS(=O)(=O)c1ccc(C)cc1
    -0.7	i	i	i	i	25.4	i	i	i	i
#60 CCOC(=O)CSc1nc(-c2ccncc2)ccc1C#N
    4.9	i	i	i	i	-9.4	i	i	29.5*	i
#61 CC[N+](C)(C)Cc1ccccc1Br
    -4.8	i	i	i	i	15.7	i	i	i	i
#62 C/C(CCN1CCCCc2nc(C)c(C)cc21)=N\O[C@H](C)c1cn([C@H](CO)Cc2ccccc2)nn1
    0.3	i	i	i	i	12.2	i	i	i	i
#63 O=C(Nc1ccccn1)c1ccc(=O)[nH]n1
    12.2	i	i	i	i	1.6	i	i	i	i
#64 CCOc1ccc(C2C(C(=O)c3ccc(C)o3)=C(O)C(=O)N2CCN2CCOCC2)cc1OC (stereo not drawn)
    0.2	i	i	i	i	2.4	i	i	i	i
#65 CN1C(CC(=O)c2ccccc2)CCCC1CC(O)c1ccccc1 (stereo not drawn)
    -0.9	i	i	i	i	4.1	i	i	i	i
#66 CC(=O)OCC(=O)[C@@]12OC3(CCCC3)O[C@@H]1C[C@H]1[C@@H]3CCC4=CC(=O)C=C[C@]4(C)[C@@]3(F)[C@@H](O)C[C@@]12C
    -10.0	i	i	i	i	3.5	i	i	i	i
#67 NS(=O)(=O)c1cc2c(cc1Cl)NCNS2(=O)=O
    -0.7	i	i	i	i	-4.1	i	i	i	i

Screening results (PubChem)

These rows are one share of the data; the hit share may differ from the screen's.
